Assay outcomes as filed in PubChem.
Mtb hypoxia rep: reduces hypoxia-regulated biosensor signal in M. tuberculosis; M. tuberculosis hypoxia-regulated fluorescent reporter, fluorescence; fluorescence inhibition, % (no concentration beside the values); hit rate 0.1% among 300,000;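 active = 35 to 45% if threefold the growth effect, above 45% if 1.5-fold the growth effect; inactive = the rest, general growth blockers included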;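 also: wells of about 50 µL received 100 nL stock; 0% = vehicle wells and 100% = reference inhibitor wells; whole bacteria with a GFP reporter of the hypoxia response; strong numbers were not always called active; many hits fall short of the cut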
Sa RN4220 lethal: S. aureus RN4220 growth inhibition; OD600, 16 h; inhibition, % (no concentration beside the values); hit rate 0.33% among 330,000;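 active = z-score of -3 or lower and OD600 up to 0.18 on both plates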;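 also: plate controls were untreated cells for no effect and reference antibiotic for full effect; stock transfer was 100 nL into about 80 µL; one replicate is shown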
BJeLR lethal: kills HRASV12-expressing BJeLR cells; hit rate 0.17% among 300,000; AID 1554; BJeLR (HRASV12) viability, CellTiter-Glo ATP luminescence, 48 h; reference of the scale not given here; inhibition, % (concentration not given with the values);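 active = replicate mean above 50%; inconclusive = above 50% but judged a plate artefact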;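 also: 50 nL library stock added to about 25 µL; numbers are from one replicate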
ugtP null kill: kills S. aureus RN4220 lacking UgtP | hit rate 0.54% among 330,000 | growth inhibition, % (concentration not given with the values) | S. aureus RN4220 ugtP deletion, OD600 growth, 16 h; some inactives read as strong as hits;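 active = z-score under -3 and OD600 up to 0.15 on both plates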;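 also: plate controls were untreated wells for no effect and antibiotic for full effect; wells of about 80 µL received 100 nL stock; the first replicate is given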
PrP UTR inh: inhibition of PrP 5' UTR reporter expression. cell-based PrP 5' UTR mRNA reporter, plate reader. inhibition, % (concentration not given with the values). hit rate 0.35% among 340,000. AID 488862;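 active = every replicate at 50% or more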;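 also: 0 = median of the neutral control wells; tested in H4 reporter cells; numbers are from one replicate; inactives centre near -14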
Bead autofluor: counter-screen for toxin protease inhibitors: compound fluorescence; hit rate 3.1% among 360,000; AID 624483; fluorescence intensity (no concentration beside the values); compound autofluorescence counterscreen, microsphere flow cytometry; active compounds read high;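 active = at least 3 SD above the mean of all compounds, about 16000 in these data; inconclusive = too few beads counted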;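 also: 100 nL of 1 mM stock went into each well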
Mtb hypoxia rep growth: further read-out of Mtb hypoxia rep, marked with its call; growth inhibition, %; measured here: M. tuberculosis growth (absorbance);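 0% = vehicle and 100% = reference antibiotic; read after six days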
Starred values were filed as active, the others as inactive; ? = inconclusive; . = not tested or not shown; & = joins results of further samples. An unsorted share of the library; any-hit rate near 4%.

SMILES	Mtb hypoxia rep	Mtb hypoxia rep growth	Sa RN4220 lethal	BJeLR lethal	ugtP null kill	PrP UTR inh	Bead autofluor
CC(=O)N1CCC2(CC1)C/C(=N\NC(=S)Nc1ccccc1C)c1cc(O)ccc1O2	.	.	.	-1	.	-18	4248
O=C1C(=O)N(c2ccccn2)C(c2ccc(F)cc2)/C1=C(/O)c1ccc(Br)cc1 (stereo unspecified)	7	-4	0.2	-9	-3	-34	3504
O=C(NCc1ccco1)Nc1ccc([N+](=O)[O-])cc1	-7	11	-0.3	-8	7	-27	4203
CC1CCCCN1C(=O)c1ccc(OC2CCN(S(=O)(=O)N(C)C)CC2)cc1 (stereo unspecified)	12	7	6.1	3	2	-18	3957
CC(=O)C(=Nc1ccc(Cl)cc1Cl)NNc1cccc(Cl)c1	.	.	.	4	.	6	3362
CCOC(=O)C1=C(N)Oc2ccccc2C12C(=O)N(CC(=O)OC)C(CC(=O)OC)=C2C(=O)OC (stereo unspecified)	2	3	-1.7	-3	-4	-27	10384
CCn1c(SCC(=O)Nc2nccs2)nnc1-c1cccnc1	1	2	3.3	2	7	-7	?
O=S(=O)(c1cccc2c(S(=O)(=O)N3CCCC3)cccc12)N1CCCC1	7	6	-12	1	-6	-9	3321
CCN(CC(=O)Nc1c(F)cccc1F)C(=O)c1ccc(N2CCCC2)c([N+](=O)[O-])c1	-6	-16	-3.3	10	1	-15	.
Cc1c(C)[n+](=O)c(-c2ccco2)c(C)n1[O-]	7	5	3.9	2	6	-13	15867
Cc1c(C(=O)c2cccc3ccccc23)c2cccc3c2n1C(CN1CCOCC1)CO3 (stereo unspecified)	2	0	-4.0	.	1	.	.
O=C(c1ccc2c(c1)OCCO2)C1CCN(S(=O)(=O)c2cccc(F)c2)CC1	0	-4	5.2	2	8	-8	17035*
CC(=O)Nc1ccc(NC(=O)c2ccc3c(c2)C(=O)N(c2ccccc2C)C3=O)cc1	-2	-10	2.4	7	4	14	3300
COc1ccc(OC)c(NC(=O)CSc2ncnc3c2cnn3-c2ccccc2Cl)c1	16	5	2.3	3	1	6	4235
COc1ccc(C=O)cc1CSc1ccccn1	-3	-3	6.2	-1	-3	-11	3687
CC(=O)Nc1ccc(NC(=O)Cn2nc([N+](=O)[O-])c(Br)c2C)cc1	14	9	1.9	7	-1	-31	4019
COC(=O)[C@@H](NC(=O)Nc1cccc(Br)c1)C(C)C	3	-1	2.4	-11	5	4	2463
O=C(COC(=O)c1ccc([N+](=O)[O-])o1)Nc1cccc(S(=O)(=O)N2CCCCC2)c1	11	4	7.4	6	7	-12	3591
CCC(C)c1ccc(O)c(NC(=S)NC(=O)c2cccnc2)c1 (stereo unspecified)	-8	2	14	-1	7	-17	4403
Cc1cc(NC(=O)CSc2ccc3nnc(-c4ccccn4)n3n2)no1	3	4	5.0	0	5	-17	5887
O=C(NN=Cc1ccc(OCc2ccc(F)cc2)cc1)c1ccccc1	5	5	1.1	.	-14	.	.
CC(=O)NCC1CCCN(C(=O)c2ccc(OC3CCN(Cc4ccccn4)CC3)cc2)C1 (stereo unspecified)	4	3	2.7	7	4	-11	5030
COc1cccc(CNC(=O)C2CCCN(S(=O)(=O)N3CC(C)CC(C)C3)C2)c1 (stereo unspecified)	3	1	-2.0	-6	5	-4	4920
CCCn1c(SCC(=O)N2CC(=O)Nc3ccccc32)nc2ccccc21	-2	2	5.6	-9	2	-16	2502
O=C(NC1CC1)C1CCCN(C(=O)NC2CCCCC2)C1 (stereo unspecified)	14	16	-0.8	-1	13	-25	4288
NS(=O)(=O)c1cccc(N2CCNCC2)c1	2	1	-2.6	-1	-7	-15	3955
[N-]=[N+]=NC[C@H](Cc1ccccc1)N1CCN(Cc2ccccc2)CCC1=O	.	.	.	0	.	0	3841
CCn1cc(C(=O)N(C)c2ccc(OC)cc2OC)c2cc(OC)c(OC)cc2c1=O	9	17	4.0	5	3	.	4013
Cc1ccc(C(=O)N/N=C\c2cccn2C)cn1	.	.	.	1	.	-6	3630
CC(NC(=O)Nc1ncccn1)(C(F)(F)F)C(F)(F)F	.	.	-2.1	3	1	-25	4452
CN1CCN(C(=O)/C(=C\c2cccnc2)NC(=O)c2cccc(Br)c2)CC1	8	-5	2.6	-4	7	-4	6377
Cc1ccnc(NC(=O)CCC(=O)N(CC(=O)NCc2ccccc2)Cc2cccs2)c1	-2	-4	5.5	-4	0	-33	2203
C=C(C)CN(CC)C(=O)CN1C(=O)NC2(CCCc3ccccc32)C1=O (stereo unspecified)	11	-5	0.9	2	4	-4	4996
Cc1cc(C)c2c(=O)[nH]c(SCc3ccccc3)nc2n1	5	10	-1.6	-2	3	-31	4421
Cc1c(C(C)CCCO)oc(=O)c2c1Oc1c(C)c(C(C)CC(C)O)oc(=O)c1C2 (stereo unspecified)	5&10	5&4	8.8&7.0	.	0&-2	.	.
O=C(NN=Cc1cccc2cccnc12)c1ccccc1O	12	5	9.5	.	1	.	.
COc1ccccc1C(=O)OCc1cc(=O)n2ccsc2n1	-3	4	3.3	.	-1	-32	3801
Cc1cc(C)c(S(=O)(=O)N2CCCCC2CCNC(=O)C(=O)NCC2CCCO2)c(C)c1 (stereo unspecified)	-9	-10	6.1	-3	3	6	6271
CN(C(=O)c1cccc(NC(=O)Cc2ccccc2)c1)c1ccccc1	16	2	2.5	-7	8	-16	4074
O=C1C2C3C=CC(C2C(=O)N1c1ccc(O)cc1)C1C2C(=O)N(c4ccc(O)cc4)C(=O)C2C31 (stereo unspecified)	-5	-7	-3.4	1	0	-18	3479
COc1c(C)cc(Br)cc1C(=O)Nc1cccc(NC(=O)c2ccco2)c1	5	8	18	7	0	-9	8012
Cc1cc(=O)oc2c1ccc1oc(C(=NO)c3ccccc3)c(C)c12	-1	-5	-2.4	.	-36	.	.
COc1ccc(Nc2nc3ccc(C)cn3c(=O)c2C=NO)cc1	-4	0	0.4	.	-12	.	.
CCOC(=O)C1(C)NC(c2ccc(OC)cc2OC)C2C(=O)N(c3cccc(OC)c3)C(=O)C21 (stereo unspecified)	1	11	1.6	-2	-3	-18	9013
C=CCOC(=O)C1=C(C)Nc2nnnn2C1c1cccc(OC)c1OC (stereo unspecified)	14	9	9.7	8	-7	-18	2837
COC(=O)c1c(NC(=O)c2ccc(N(C)S(=O)(=O)c3ccc(C)cc3)cc2)sc2c1CCCC2	12	0	3.1	11	4	-30	2106
COCc1cc(C)nc(Sc2nc3c(c(=O)n(C)c(=O)n3C)n2C)c1C#N	-7	8	2.9	10	-3	-11	4123
O=C(CSc1nnc(COc2ccc(Br)cc2)o1)NC1CCCCC1	13	10	-0.8	-8	2	-7	5535
C[C@@H](NC(=O)c1nc[nH]c1C(=O)NCC(=O)OC(C)(C)C)c1ccccc1	.	.	.	-1	.	-17	3630
O=C(COC(=O)C1CC2C=CC1C2)Nc1cccc(S(=O)(=O)N2CCCCCC2)c1 (stereo unspecified)	6	-1	5.7	-5	-6	11	2243

More compounds:
SMILES	Mtb hypoxia rep	Mtb hypoxia rep growth	Sa RN4220 lethal	BJeLR lethal	ugtP null kill	PrP UTR inh	Bead autofluor
Cc1csc(=N)n1Cc1ccccc1	-2	13	5.9	17	8	-17	1961
O=S(=O)(/N=C(/c1ccccc1)N1CCCCC1)c1ccccc1	.	.	.	19	.	-3	2636
Cc1ccccc1NC(=O)CCC(=O)N/N=C/c1ccc(F)cc1	.	.	.	6	.	-12	4359
Cc1cccc(NC(=S)N/N=C2\CC(C)(C)Oc3ccc(O)cc32)c1	.	.	.	-1	.	-3	2089
CCN(CC)C1CCN(C(=O)c2ccc(OC3CCN(CCc4ccccc4)CC3)cc2)C1 (stereo unspecified)	-4	11	-2.5	3	-6	-1	6082
COc1ccc(-c2nc(C(=O)NCCCN3CCOCC3)cc3c2[nH]c2ccccc23)cc1OC	.	.	3.2	-8	-11	1	5858
Cc1cc(OCC(=O)NCc2cccnc2)c2c(C)c(C)c(=O)oc2c1	-6	-12	-1.9	-3	9	-17	5537
COc1ccc(OC)c(NC(=S)NCc2cccnc2)c1	0	-4	2.6	0	13	-4	2087
COc1ccc(CCNC(=O)Cn2c(=O)n(CCCC(=O)NCc3ccco3)c(=O)c3sccc32)cc1OC	-6	-3	0.5	9	-6	-28	5088
COc1ccc(OCc2cc(C(=O)N[C@H]3CCCCNC3=O)no2)c(Cl)c1	0	5	0.0	-12	5	-34	5692
O=C1CC(SC2=NCCS2)C(=O)N1c1cccc(Cl)c1Cl (stereo unspecified)	6	11	5.4	-5	0	-24	4524
Cc1[nH]c(=S)c(C#N)c(C)c1CCC#N	10	5	3.0	7	6	4	6066
CCC(/C=N/Nc1ccc(S(=O)(=O)N2CCCC2)cc1[N+](=O)[O-])CC	.	.	.	-1	.	-12	10516
COCCCN(CC(=O)O)S(=O)(=O)c1cccc(Cl)c1	8	8	6.8	-1	-4	-34	3999
COc1ccc(Cl)cc1NC(=S)Nc1ccccc1F	7	6	5.4	2	-1	-30	5004
CS(=O)(=O)Cc1ccc(C(=O)N2CCCC2c2cccs2)cc1 (stereo unspecified)	2	4	-1.4	1	8	-7	6243
CCc1ccc(-c2nn(-c3cc(Cl)ccc3[N+](=O)[O-])c(=O)c3ccccc23)cc1	.	.	1.8	.	0	-20	2329
CCNc1nnc(-c2ccncc2)s1	0	8	1.0	-11	1	-33	4238
O=C(CCCn1cc([N+](=O)[O-])cn1)NC1CCCCCC1	-6	1	11	4	4	-10	4303
Cc1onc(-c2ccccc2)c1-c1nnc(COC(=O)c2ccc(O)cc2)o1	7	-2	2.3	.	-6	-26	5349
CC1CCCN(S(=O)(=O)c2coc(C(N)=O)c2)C1 (stereo unspecified)	.	.	4.0	-6	4	-9	4392
CN(Cc1ccon1)C(=O)CC1C(=O)NCCN1Cc1ccccc1C(F)(F)F (stereo unspecified)	11	9	6.1	0	4	-11	6066
COc1ccc(CCNC(=O)c2ccc3c(=O)n4c(nc3c2)CCC4)cc1OC	-9	4	2.1	.	0	0	5077
Cn1c[n+](C)cc1-c1ccc(/C(N)=N/O)cc1	.	.	.	6	.	-4	2124
CCN(Cc1ccccc1)C(=O)c1cc2c(=O)oc3ccc(C)cc3c2s1	.	.	2.0	-6	4	-33	6442
CCCCc1cc(=O)oc2cc(C)cc(OCC(=O)NCC3CCC(C(=O)O)CC3)c12 (stereo unspecified)	.	.	5.8	-3	8	-22	5962
CCOc1ccsc1C(=O)O	-5	7	-0.6	5	-6	-26	6091
CCCS(=O)(=O)N1CCCC(C(=O)NCCCN(Cc2ccccc2)C(C)C)C1 (stereo unspecified)	1	8	-12	-5	-10	-14	3201
CCCOc1ccc(C=NNC(=O)CN2CCCCC2)cc1	10	-2	4.7	.	5	.	.
O=C(CC(=O)N1CCOCC1)N1CCOCC1	6	3	2.7	.	2	-26	3607
COc1ccc(/C=C/C(=O)NCc2cn(C)nc2C)cc1COc1ccc(Cl)cc1Br	5	-1	-2.2	11	11	-8	11615
COc1ccccc1NC(=O)NCC(c1ccco1)N1CCCCC1 (stereo unspecified)	15	13	1.7	0	5	-33	4244
COc1ccc(CCn2cnc3c([nH]c4ccccc43)c2=O)cc1	12	11	3.8	-6	-4	-28	4598

Structural class: those above with an aryl thioether with sulfur outside any ring (eight)
SMILES	Mtb hypoxia rep	Mtb hypoxia rep growth	Sa RN4220 lethal	BJeLR lethal	ugtP null kill	PrP UTR inh	Bead autofluor
CCn1c(SCC(=O)Nc2nccs2)nnc1-c1cccnc1	1	2	3.3	2	7	-7	?
COc1ccc(OC)c(NC(=O)CSc2ncnc3c2cnn3-c2ccccc2Cl)c1	16	5	2.3	3	1	6	4235
COc1ccc(C=O)cc1CSc1ccccn1	-3	-3	6.2	-1	-3	-11	3687
Cc1cc(NC(=O)CSc2ccc3nnc(-c4ccccn4)n3n2)no1	3	4	5.0	0	5	-17	5887
CCCn1c(SCC(=O)N2CC(=O)Nc3ccccc32)nc2ccccc21	-2	2	5.6	-9	2	-16	2502
Cc1cc(C)c2c(=O)[nH]c(SCc3ccccc3)nc2n1	5	10	-1.6	-2	3	-31	4421
COCc1cc(C)nc(Sc2nc3c(c(=O)n(C)c(=O)n3C)n2C)c1C#N	-7	8	2.9	10	-3	-11	4123
O=C(CSc1nnc(COc2ccc(Br)cc2)o1)NC1CCCCC1	13	10	-0.8	-8	2	-7	5535
